# Sa RN4220 lethal = growth inhibition of S. aureus RN4220, primary screen, OD600; hit rate 0.33% among 330,000; 16 h; inhibition, % (test concentration not listed);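 active = z-score of -3 or lower and OD600 up to 0.18 on both plates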;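 note: plate controls were untreated cells for no effect and reference antibiotic for full effect; stock transfer was 100 nL into about 80 µL; one replicate is shown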
# ugtP null kill = growth inhibition of ugtP-null S. aureus, primary screen, RN4220 ugtP deletion, OD600; 16 h; some inactives read as strong as hits; hit rate 0.54% among 330,000; growth inhibition, % (concentration not given with the values); AID 1259309, 2017;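 active = z-score under -3 and OD600 up to 0.15 on both plates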;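 note: plate controls were untreated wells for no effect and antibiotic for full effect; wells of about 80 µL received 100 nL stock; the first replicate is given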
# BJeLR viability = MLPCN primary cell-based screen for lethality selective to Ras in HRASV12 cells; inhibition, % (concentration not given with the values); hit rate 0.17% among 300,000; BJeLR (HRASV12) viability, CellTiter-Glo ATP luminescence, 48 h; reference of the scale not given here;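 active = replicate mean above 50%; inconclusive = above 50% but judged a plate artefact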;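 note: 50 nL library stock added to about 25 µL; numbers are from one replicate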
# Mtb hypoxia inh = PubChem AID 1159583; hit rate 0.1% among 300,000; fluorescence inhibition, % (test concentration not listed); M. tuberculosis hypoxia-regulated fluorescent reporter, fluorescence;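 active = 35 to 45% if threefold the growth effect, above 45% if 1.5-fold the growth effect; inactive = the rest, general growth blockers included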;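 note: wells of about 50 µL received 100 nL stock; 0% = vehicle wells and 100% = reference inhibitor wells; whole bacteria with a GFP reporter of the hypoxia response; strong numbers were not always called active; many hits fall short of the cut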
# PrP UTR inh = inhibition of PrP 5' UTR reporter expression. AID 488862, 2010. cell-based PrP 5' UTR mRNA reporter, plate reader. inhibition, % (no concentration beside the values). hit rate 0.35% among 340,000;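 active = every replicate at 50% or more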;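 note: 0 = median of the neutral control wells; tested in H4 reporter cells; numbers are from one replicate; inactives centre near -14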
# Bead autofluor = compound fluorescence in toxin protease inhibitor counterscreen; compound autofluorescence counterscreen, microsphere flow cytometry; hits give high values; hit rate 3.1% among 360,000; AID 624483; fluorescence intensity (concentration not given with the values);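 active = at least 3 SD above the mean of all compounds, about 16000 in these data; inconclusive = too few beads counted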;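 note: 100 nL of 1 mM stock went into each well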
# Mtb hypoxia inh growth = further read-out of Mtb hypoxia inh, marked with its call; growth inhibition, %; measured here: M. tuberculosis growth (absorbance);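 0% = vehicle and 100% = reference antibiotic; read after six days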
# Numbers without * were called inactive; ? = inconclusive; . = not tested or not shown; & = joins results of further samples.
SMILES,Sa RN4220 lethal,ugtP null kill,BJeLR viability,Mtb hypoxia inh,Mtb hypoxia inh growth,PrP UTR inh,Bead autofluor
Cc1ccc(S(=O)(=O)N2CCOCC2)cc1NC(=O)CSc1nnnn1C1CCCC1,4.4,4,.,-3,-2,-13,9428
COc1ccc(CC(=O)NN=C(C)CC(=O)Nc2ccc(N(C)C)cc2)cc1,2.9,4,.,0,2,.,.
Cc1noc(NS(=O)(=O)c2ccc(NC(=O)CC34CC5CC(CC(Br)(C5)C3)C4)cc2)c1C,5.9,6,-14,10,9,-18,3095
Cc1cc(=O)[nH]c2c1c(=O)[nH]n2C1CC(C)N(C)CC1C (stereo not given),-0.2,4,4,.,.,-19,2980
CCCCCNc1nc(N2CCCC2)c2c(c1C#N)CCN(C)C2,-0.7,-24,4,.,.,0,3510
Cc1ccc(S(=O)(=O)NCC(=O)N(CC(=O)NCC2CCCO2)Cc2ccc(Cl)cc2)cc1 (stereo not given),0.9,-3,-5,2,-4,-6,3511
Cc1ccc(S(=O)(=O)NCCC(=O)Nc2ccc3c(c2)OCO3)cc1,-0.1,4,3,.,.,-9,2176
Cc1noc(C)c1C(=O)OCC(=O)Nc1ccc(C(N)=O)cc1,7.0,3,2,5,3,-26,4329
COC(=O)C1=C(c2ccc(C(C)=O)cc2)CC2CCC1N2C(=O)N1CCOCC1 (stereo not given),2.1,-5,.,-2,5,.,.
CCOC(=O)c1c(NC(C)=O)sc2c1C1CCN2CC1,1.0,14,4,7,0,-9,2478
CS(=O)(=O)c1[nH]nc(-c2ccccc2Cl)c1C#N,1.5,0,1,2,16,.,.
CCCCOc1nc2ccccc2nc1C(C#N)C(=O)NC1CCCCC1 (stereo not given),5.8,-8,1,.,.,-17,2412
CC(C)Oc1ccc(C2CC(=O)NC3=C2C(=O)CCC3)cc1 (stereo not given),2.6,7,6,.,.,-33,2186
CCN(CC)C(=S)Nc1ccc2nc3n(c(=O)c2c1)CCCCC3,13,6,.,9,13,-24,4415
CCN1C(=S)N[C@@H](c2cccs2)C(C(=O)OC)=C1C,.,.,-1,.,.,-5,3153
Cc1ccc(CNC(=O)CCSCc2ccccc2C)cc1,0.1,1,-2,0,7,-4,3736
COCCCn1c(=N)c(C(=O)NCC2CCCO2)cc2c(=O)n3ccccc3nc21 (stereo not given),-1.8,4,12,.,.,-6,3359
CCOc1ccccc1NC(=O)CN1C(=O)C(C)SC(C)C1=O (stereo not given),7.7,6,0,-3,-6,-6,4514
CC(=NCCCn1ccnc1)c1c(O)n(Cc2ccccc2)c(=O)[nH]c1=O,-1.0,-2,6,4,1,-22,20727*
COc1cc(C#Cc2c(-c3ccccc3)n(C)c3ccccc23)cc(OC)c1,.,.,-13,.,.,-7,3816
Cc1ccc(S(=O)(=O)N2CCN(C(=O)COC(=O)C3CC3C)CC2)c(C)c1 (stereo not given),3.6,4,.,10,0,-11,3953
COC(=O)C1C/C(=N\NS(=O)(=O)c2ccc(C)cc2)c2sccc2C1 (stereo not given),.,.,3,.,.,-25,2449
O=C1c2ccccc2C(=O)N1CCc1c[nH]c2ccccc12,7.7,10,5,-12,-5,-49,3625
O=C(CSc1nc2c(sc3ccccc32)c(=O)n1CCCN1CCOCC1)NC1CCCC1,3.2,-1,9,5,-2,-19,9033
CCC(C)NC(=O)CN(c1cc(Cl)cc(Cl)c1)S(C)(=O)=O (stereo not given),1.7,1,-2,12,0,-8,4365
O=C(Nc1ccccc1C(F)(F)F)Nc1cccc2ccccc12,0.6,-7,10,2,3,-5,10841
COc1ccccc1/C=C/C(=O)Nc1ccc(S(=O)(=O)Nc2cc(C)on2)cc1,7.9,0,4,22,12,6,4423
CCOc1ccc(S(=O)(=O)N2CCNC(=O)C2)cc1,2.9,-1,.,-2,0,-17,3140
COc1ccc(NC(=O)c2cc(-c3ccco3)nc3ccccc23)cc1S(=O)(=O)N1CCOCC1,5.1,8,23,9,9,-8,4238
COc1cc2c(c(OC)c1OC)CC(=O)N(C)CC2,2.8,0,-8,4,10,-19,7291
O=C(CSCSCC(=O)Nc1ccc2c(c1)OCO2)Nc1ccc2c(c1)OCO2,0.4,-6,-1,5,12,-18,10539
CC(=O)Nc1cccc(NC(=O)c2cc(C)on2)c1,-1.2,6,10,2,6,-48,11997
COc1ccc(Nc2nc3ccc(C)cc3cc2C#N)c(OC)c1,5.9,3,-6,15,2,-29,2567
COc1ccc(-c2noc(CCC(=O)N3CCN(c4cccc(C(F)(F)F)c4)CC3)n2)cc1,5.2,0,-5,.,.,-1,2468
O=C(O)c1ccccc1Nc1cccc(C(F)(F)F)c1,15,-30,.,-1,-5,-24&-23,5734
Cc1[nH]c2ccccc2c1C=NO,4.6,-1,.,5,6,.,.
CC(C)C[C@H]1CN=C(Nc2ccccc2)N1CCc1cccc(F)c1,-5.2,-1,.,11,7,18,4149
CN1CCN(S(=O)(=O)c2ccc(N3CCN(c4ccccc4Cl)CC3)nc2)CC1,5.6,9,.,12,2,-9,?
O=C(O)c1ccccc1N=Cc1c(O)n(-c2nccs2)c(=O)c2ccccc12,11,7,4,7,6,-29,5152
CCOCCCN(C(=O)CCC(=O)Nc1cc(C)on1)C(C(=O)NC(C)(C)CC)c1cccc(OC)c1OC (stereo not given),3.9,10,-7,1,8,-17,3543
O=C(NCCCn1ccnc1)c1cccc(S(=O)(=O)Nc2ccc(Br)cc2)c1,2.9,3,-3,-8,0,-10,5999
NC(=O)c1nsc(C(=O)N(Cc2ccccc2Cl)C(C(=O)NCC2CCCO2)c2ccc(O)cc2)c1N (stereo not given),5.6,-5,-14,3,-1,-2,6589
Cc1ccc(C(=O)OCC(=O)c2c[nH]c3ccccc23)cc1S(=O)(=O)N1CCCCC1,-7.0,-18,14,-3,4,-29,9648
COc1cccc(CNC(=O)C2CCN(c3cnccn3)CC2)c1,3.4,6,6,2,5,-30,9511
CC(C)NC(=O)CSc1nnc(-c2ccncc2)n1-c1ccccc1,-1.6,-1,-1,-17,-4,-16,3552
CCCNC(=O)c1ccc(COc2cccc3ccccc23)o1,1.5,6,-1,5,-2,-12,3625
COc1cc(CNCc2ccc3c(c2)OCO3)c([N+](=O)[O-])cc1OC,3.6,2,0,3,8,-20,3707
C/C(=N/NC(=O)c1cccnc1)C1=C(O)CC(C)(C)CC1=O,.,.,-2,.,.,0,3529
Cc1ccc(C=NN(C)C2=NS(=O)(=O)c3ccccc32)o1,1.3,-5,.,-2,10,.,.
Cc1cc(C)c(S(=O)(=O)N2CCC(C(=O)NCc3ccc(Cl)cc3Cl)CC2)c(C)c1,-13,-21,0,7,7,-8,10539

# The list continues.
SMILES,Sa RN4220 lethal,ugtP null kill,BJeLR viability,Mtb hypoxia inh,Mtb hypoxia inh growth,PrP UTR inh,Bead autofluor
O=C(Oc1ccc([N+](=O)[O-])cc1)c1ccc(Cl)c(S(=O)(=O)N2CCCCC2)c1,5.3,8,-3,6,0,.,.
O=C(c1c[nH]c2ccccc12)N1CCN(c2ccccc2)CC1,-2.8,16,7,19,10,-12,4628
CCCCCCCCN1[C@@H](CC(=O)O)c2cc(C(F)(F)F)ccc2S1(=O)=O,.,.,1,.,.,-24,3357
O=c1oc(-c2ccccc2)nc2sc3c(c12)CCCC3,3.7,9,0,-2,5,-99,6943
COc1ccc(C=CC(=O)c2cc(O)ccc2O)cc1,5.6,1,.,7,5,-37,3560
O=C(Nc1ccccn1)Nc1cccs1,8.5,-6,-3,6,9,-43,12451
C=CCNC(=S)NNC(=O)C(CCCC)CC(C)(C)O (stereo not given),-13,-5,9,3,3,-10,2554
O=C(Nc1cccc(-c2cccc(Cl)c2)c1)C1CCN(C2CCC2)CC1,-4.6,-5,0,-4,-3,-22,.
COc1ccc(C(=O)O)cc1S(=O)(=O)NC(C)C,5.7,-5,-5,11,5,-18,4879
CC1Cc2cc(/C(O)=C3/C(=O)C(=O)N(CCCn4ccnc4)C3c3ccco3)ccc2O1 (stereo not given),2.9,5,6,.,.,12,2838
Cc1ccccc1N1C(=O)NC(=O)/C(=C\c2ccc3c(c2)CCCN3Cc2ccccc2)C1=O,4.5,0,9,3,-1,-3,5652
CCN(CC)S(=O)(=O)c1cccc2cc(C(=O)O)c(O)cc12,-21,-5,2,5,9,-10,3227
CC(=O)Nc1ccc(NC2=C/C(=N/S(=O)(=O)c3cccs3)c3ccccc3C2=O)cc1,.,.,-4,.,.,-32,4625
Cc1ccsc1C(=O)NN=Cc1ccc2c(c1)OCO2,4.0,-6,.,13,6,.,.
COc1ccccc1-n1c(-c2ccccc2)c[nH]c1=S,6.2,5,7,4,-2,10,3917
Cc1ccc2cc3cc(C(=O)NCCCN4CCCC4=O)oc3nc2c1,-0.8,3,7,2,-4,-33,6512
O=C(CCN1CCN(c2ccccc2)CC1)NN=Cc1ccc([N+](=O)[O-])o1,7.8,4,.,3,5,.,.
COC(=O)c1ccc(C(=O)OC)c(NC(=S)N2CCCCC2C)c1 (stereo not given),.,.,13,.,.,-13,8752
C=CCN1C(=O)/C(=C/c2ccccc2)SC1=Nc1nccs1,-6.9,-7,.,-9,-2,.,.
Cc1ccc(-c2csnn2)cc1,7.0,3,0,2,4,-35,4150
CC(CC(=O)Nc1ccc(N(C)C)cc1)=NNC(=O)C(=O)NCc1ccccc1,4.7,14,.,10,6,.,.
O=C(COc1ccccc1)NC(=S)Nc1ccc2c3c(cccc13)CC2,-5.4,7,-2,.,.,7,2251
CCOC(=O)c1[nH]c(C)c(C(=O)OCC)c1C,7.7,-17,-5,-1,12,-18,5709
Nc1ccn(CC(=O)NCCNc2ccc([N+](=O)[O-])cn2)c(=O)n1,3.8,3,.,6,0,-25,3253
OCCC1CN(Cc2c(F)cccc2Cl)CCN1C1CCCC1 (stereo not given),11,5,-2,-4,-1,-5,4447
N=C1CCCN1CC(=O)c1ccc(Br)cc1,0.7,3,-2,-2,4,-11,2141
Nc1ccc2nonc2c1[N+](=O)[O-],12,9,6,12,1,-21,4593

# Compound activity as filed in PubChem.
